Vaccinia inh: blocks a specific stage of Vaccinia orthopoxvirus infection; AID 1053133; activity change (mCherry), % (no concentration beside the values); Vaccinia-infected cells, mCherry/Venus stage reporter fluorescence; active compounds read low; some inactives read as strong as hits; actives 0.01% (n = 89,000);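 active = mCherry past -33% and 40 or more points under the early reporter, replicates agreeing; inconclusive = past -33% without that gap or agreement; tested in A549 cells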;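 note: scaled between vehicle wells and reference inhibitor wells; 23 nL library stock went into each well; one replicate is shown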
Vaccinia inh Venus: further read-out of Vaccinia inh, marked with its call; activity change (Venus), %; measured here: Venus reporter, other viral stage;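 negative = less Venus signal; first of two replicates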
Active calls of the source: *; ? = inconclusive; / = no result given; & = joins results of further samples.

SMILES	Vaccinia inh	Vaccinia inh Venus
COc1ccc(S(=O)(=O)N(C)C[C@H]2Oc3ccc(NC(=O)c4ccncc4)cc3C(=O)N([C@@H](C)CO)C[C@@H]2C)cc1	8.5	13.5
COc1cccc(C#Cc2ccc3c(c2)[C@H]2[C@H](CCN2C(=O)CC2CC2)[C@@H](CO)N3)c1	15.7	17.4
Cc1ccc(S(=O)(=O)Nc2cccc3c2O[C@@H](CN(C)Cc2ccc(C(=O)Nc4ccccc4N)cc2)[C@H](C)CN([C@H](C)CO)C3=O)cc1	6.6	9.9
O=C(C[C@@H]1C[C@H]2c3cc(NS(=O)(=O)c4ccc(F)cc4)ccc3O[C@H]2[C@H](CO)O1)NCCN1CCCCC1	13.6	14.4
CCNC(=O)Nc1ccc2c(c1)C(=O)N(C)[C@@H]1CC[C@@H](CC(=O)Nc3ccccc3)O[C@H]1CO2	3.6	6.7
CC(C)CC#Cc1ccc([C@@H]2[C@@H](CO)N3C(=O)CN(C(=O)NC4CCCCC4)C[C@@H]23)cc1	-33.3	-30.7
C[C@@H]1CN([C@@H](C)CO)C(=O)c2cc(-c3cccnc3)cnc2O[C@H]1CN(C)C(=O)c1cccc(F)c1	9.4&2.3	-1.2&-1.6
C[C@H]1CN([C@@H](C)CO)C(=O)c2cc(NC(=O)NC3CCCCC3)ccc2O[C@H]1CN(C)Cc1ccc(C(=O)O)cc1	16.6	11.5
Cc1ccc(S(=O)(=O)NCC[C@@H]2CC[C@H](NC(=O)c3cccnc3)[C@H](CO)O2)cc1	12.4	9.0
Cc1noc(C)c1NC(=O)N(C)C[C@@H]1Oc2cc(Br)ccc2S(=O)(=O)N([C@@H](C)CO)C[C@H]1C	3.6	-4.3
C[C@@H]1CN([C@H](C)CO)C(=O)c2cc(NC(=O)CCN3CCOCC3)ccc2O[C@H]1CN(C)C(=O)Nc1ccc(C(F)(F)F)cc1	6.8	5.0
O=C(CN1CCOCC1)N[C@@H]1CC[C@@H](CCNC(=O)C2CCC2)O[C@H]1CO	4.3	12.8
CN1[C@H](C(=O)NC2Cc3ccccc3C2)[C@@H](CO)[C@@H]2Cn3c(ccc(-c4ccncc4)c3=O)[C@@H]21	16.1	15.0
C[C@H]1CN([C@@H](C)CO)C(=O)c2cc(NC(=O)C3CC3)ccc2O[C@H]1CN(C)CC1CC1	-7.9	-5.8
CC(=O)n1cc([C@@H]2C=C(C(=O)NCc3ccccc3)O[C@H](OCc3ccc(CO)cc3)C2)c2ccccc21	16.5	16.6
C[C@H](CO)N1C[C@H](C)[C@H](CN(C)Cc2cccnc2)OCc2ccccc2-c2ccccc2C1=O	11.1	4.4
O=C(NCC[C@@H]1CC[C@@H](NC(=O)c2ccc3c(c2)OCO3)[C@@H](CO)O1)Nc1cc(F)ccc1F	-17.9	-11.9
C[C@@H]1CN([C@H](C)CO)C(=O)c2cccc(NC(=O)C3CC3)c2O[C@@H]1CN(C)S(=O)(=O)c1ccccc1	6.0	5.7
COc1ccc(NC(=O)N(C)C[C@H]2OCCCC[C@@H](C)Oc3ccc(NC(=O)Nc4ccc5c(c4)OCO5)cc3C(=O)N([C@H](C)CO)C[C@@H]2C)cc1	10.8	6.0
CCC(=O)N1[C@H](CO)[C@H](c2ccccc2-c2ccccc2)[C@@H]1C#N	2.3	7.0
CC(C)NC(=O)N(C)C[C@H]1Oc2ncc(C#CC3(O)CCCC3)cc2C(=O)N([C@H](C)CO)C[C@H]1C	19.0	6.6
C[C@H]1CN([C@@H](C)CO)S(=O)(=O)c2ccc(C#CCN(C)C)cc2O[C@H]1CN(C)Cc1ccncc1	-0.6	-0.3
O=C(C[C@H]1C=C[C@@H](NS(=O)(=O)c2ccc(F)cc2)[C@H](CO)O1)N1CCN(c2ccccc2)CC1	-3.8	3.8
C[C@@H]1CN([C@@H](C)CO)C(=O)c2cc(NC(=O)CCC(F)(F)F)ccc2O[C@@H]1CN(C)C(=O)Nc1ccc2c(c1)OCO2	-5.8	-1.7
Cc1ccc(S(=O)(=O)N(C)C[C@@H]2Oc3ccc(NS(=O)(=O)c4ccc(Cl)cc4)cc3C(=O)N([C@H](C)CO)C[C@@H]2C)cc1	-3.2	-7.3

(further entries)
SMILES	Vaccinia inh	Vaccinia inh Venus
OC[C@H]1[C@@H](c2ccccc2)C2(CN(Cc3ccccc3)C2)N1Cc1ccncc1	10.4	5.9
CCCN1[C@H](C(=O)OC)[C@@H](CO)[C@@H]2Cn3c(ccc(-c4ccncc4)c3=O)[C@@H]21	0.3	1.6
C[C@@H]1CN([C@@H](C)CO)C(=O)Cc2cc(NS(=O)(=O)c3cccs3)ccc2O[C@H]1CN(C)S(=O)(=O)c1ccccc1	4.6	-0.4
COc1ccccc1S(=O)(=O)N1CC[C@@H]2[C@H]1c1cc(-c3ccc(F)cc3)ccc1N[C@@H]2CO	?	/
O=C(C[C@H]1C=C[C@H](NC(=O)Nc2ccc(F)cc2)[C@@H](CO)O1)NCc1cccc(F)c1	-1.3	-1.4
Cn1cnc(S(=O)(=O)N[C@@H]2CC[C@H](CC(=O)Nc3ccccc3)O[C@@H]2CO)c1	13.9	3.2
C[C@@H]1CN([C@@H](C)CO)C(=O)c2cc(NS(C)(=O)=O)ccc2O[C@H]1CN(C)S(=O)(=O)c1cccs1	3.9	1.4
CCN(C[C@H]1N[C@@H](CO)[C@@H]1c1ccccc1)C(=O)c1ccncc1	4.1	1.9
C[C@H](NC(=O)[C@H]1[C@H](CO)[C@H]2Cn3c(cccc3=O)[C@H]2N1CC1CCCCC1)c1ccccc1	-29.8	-24.4
C[C@H]1CN([C@@H](C)CO)C(=O)c2c(c3ccccc3n2C)-c2ccccc2CO[C@H]1CN(C)C(=O)CCC(F)(F)F	4.8	0.8
O=C(c1ccccc1)N(CC1CCC1)C[C@@H]1N[C@H](CO)[C@@H]1c1ccccc1	-11.5	-7.4
Cc1noc(C)c1NC(=O)N(C)C[C@H]1Oc2ncc(C#CCN(C)C)cc2C(=O)N([C@H](C)CO)C[C@@H]1C	9.6	4.1
CCCC(=O)Nc1ccc2c(c1)OC[C@H](C)N(CC1CCCC1)C[C@H](C)[C@@H](OC)CN(C)C2=O	-2.6	-7.7
O=C(C[C@H]1C[C@@H]2c3cc(NS(=O)(=O)c4ccc(F)cc4)ccc3O[C@@H]2[C@H](CO)O1)NCc1ccc(Cl)cc1	-22.5	-11.1
C[C@H]1CN([C@@H](C)CO)C(=O)c2cc(NC(=O)NC3CCCCC3)ccc2O[C@H]1CN(C)Cc1ccc(Oc2ccccc2)cc1	?	/
C[C@@H]1CN([C@@H](C)CO)C(=O)c2cc(N(C)C)ccc2O[C@@H](C)CCCCO[C@@H]1CN(C)C(=O)CCC(F)(F)F	5.2	5.5
O=C(C[C@H]1C=C[C@H](NC(=O)Cc2cccnc2)[C@@H](CO)O1)Nc1ccccc1	10.9	20.3
C[C@H](CO)N1C[C@H](C)[C@H](CN(C)Cc2ccc3c(c2)OCO3)Oc2c(NC(=O)C3CCOCC3)cccc2C1=O	17.0	12.1
CCCN(C)C[C@@H]1Oc2cc(C#Cc3cccnc3)ccc2S(=O)(=O)N([C@@H](C)CO)C[C@@H]1C	6.4	3.1
C[C@@H]1CN([C@H](C)CO)C(=O)Cc2cc(NC(=O)CCC(F)(F)F)ccc2O[C@@H]1CN(C)Cc1ccncc1	31.4	13.6
CNC[C@@H]1Oc2ccc(NC(=O)Cc3ccccc3)cc2C(=O)N([C@H](C)CO)C[C@@H]1C	-10.7	-1.5
C[C@H]1CN([C@@H](C)CO)C(=O)c2cccc(NC(=O)C3CCOCC3)c2O[C@H]1CN(C)Cc1ccc(-c2ccccc2)cc1	0.5	-4.5
COc1ccc2c3c([nH]c2c1)[C@@H](CO)N(C(=O)Nc1ccc(F)cc1)CC31CCN(S(=O)(=O)c2cccc(F)c2)CC1	?	/
C[C@H]1CN([C@@H](C)CO)C(=O)c2cccc(NC(=O)c3nc4ccccc4s3)c2O[C@H]1CN(C)S(=O)(=O)c1ccc(Cl)cc1	13.6	18.3
Cc1ccc(S(=O)(=O)N(C)C[C@@H]2Oc3ccc(NC(=O)Cc4cn(C)c5ccccc45)cc3CC(=O)N([C@@H](C)CO)C[C@@H]2C)cc1	?	/

The last six entries of the part above lead into the next.
SMILES	Vaccinia inh	Vaccinia inh Venus
C[C@@H]1CN([C@H](C)CO)C(=O)Cc2cc(NC(=O)CCC(F)(F)F)ccc2O[C@@H]1CN(C)Cc1ccncc1	31.4	13.6
CNC[C@@H]1Oc2ccc(NC(=O)Cc3ccccc3)cc2C(=O)N([C@H](C)CO)C[C@@H]1C	-10.7	-1.5
C[C@H]1CN([C@@H](C)CO)C(=O)c2cccc(NC(=O)C3CCOCC3)c2O[C@H]1CN(C)Cc1ccc(-c2ccccc2)cc1	0.5	-4.5
COc1ccc2c3c([nH]c2c1)[C@@H](CO)N(C(=O)Nc1ccc(F)cc1)CC31CCN(S(=O)(=O)c2cccc(F)c2)CC1	?	/
C[C@H]1CN([C@@H](C)CO)C(=O)c2cccc(NC(=O)c3nc4ccccc4s3)c2O[C@H]1CN(C)S(=O)(=O)c1ccc(Cl)cc1	13.6	18.3
Cc1ccc(S(=O)(=O)N(C)C[C@@H]2Oc3ccc(NC(=O)Cc4cn(C)c5ccccc45)cc3CC(=O)N([C@@H](C)CO)C[C@@H]2C)cc1	?	/
CC(=O)N1CC2(C1)[C@H](c1ccccc1)[C@@H](CO)N2Cc1cccc(Cl)c1	-6.5	0.0
Cc1noc(C)c1NC(=O)N(C)C[C@@H]1Oc2ccc(NC(=O)CCCCCC(=O)Nc3ccccc3N)cc2C(=O)N([C@@H](C)CO)C[C@H]1C	2.3	10.0
Cc1ccc(S(=O)(=O)Nc2cccc3c2O[C@@H](CN(C)Cc2ccc(Oc4ccccc4)cc2)[C@@H](C)CN([C@H](C)CO)C3=O)cc1	?	/
Cc1ccc(S(=O)(=O)N[C@@H]2CC[C@@H](CCn3cc(-c4cccnc4)nn3)O[C@H]2CO)cc1	1.6	-1.7
CCCNC(=O)C[C@@H]1CC[C@@H]2[C@@H](COc3ccc(NC(=O)c4cccs4)cc3C(=O)N2C)O1	22.3	8.4
C[C@H](O)C#Cc1ccc([C@H]2[C@@H](CO)N3CCCCN(C(=O)Nc4ccccc4)C[C@H]23)cc1	9.5	-0.7
COc1ccc2c3c(n(C)c2c1)[C@H](CO)N(Cc1ccccc1OC)CC31CCN(C(=O)C2CC2)CC1	17.5	17.0
COCC(=O)N(C)C[C@H]1Oc2cc(-c3cccnc3)ccc2S(=O)(=O)N([C@H](C)CO)C[C@H]1C	11.5	7.6
CNC[C@@H]1Oc2ccc(N(C)C)cc2C(=O)N([C@@H](C)CO)C[C@@H]1C	8.9	10.5
COC(=O)c1ccc([C@H]2C=C(C(=O)N3CCN(Cc4ccc5c(c4)OCO5)CC3)O[C@@H](OCc3ccc(CO)cc3)C2)cc1	7.5	5.3
CS(=O)(=O)Nc1ccc2c(c1)[C@@H]1C[C@@H](CC(=O)NC3CCCCC3)O[C@@H](CO)[C@@H]1O2	2.7	2.6
Cc1ccc(S(=O)(=O)N(C)C[C@@H]2Oc3ccc(NC(=O)Nc4ccccc4)cc3CC(=O)N([C@@H](C)CO)C[C@H]2C)cc1	7.6	4.7
O=S(=O)(Cc1ccccc1)N1CCCCN2[C@H](C1)[C@H](c1ccc(-c3ccncc3)cc1)[C@@H]2CO	-26.0	-33.1
CC(C)NC(=O)N1[C@H](CO)[C@H]2c3ccccc3N(C(=O)Nc3ccc(Cl)cc3)C[C@H]21	5.4	-4.0
O=C(Nc1cc(F)ccc1F)N[C@@H]1CC[C@H](CC(=O)N2CCc3ccccc3C2)O[C@H]1CO	-30.8	-10.3
O=C(C[C@H]1C=C[C@H](NC(=O)Nc2cc(F)ccc2F)[C@H](CO)O1)Nc1ccccc1	-4.2	0.0
COc1ccc2c3c(n(C)c2c1)[C@@H](CO)NCC31CN(CC2CCOCC2)C1	-0.6	-7.0
O=C(Nc1ccccc1F)N1C[C@@H]2N[C@H](C1)C2c1ccc(-c2ccccc2)cc1 (stereo partly drawn)	?	/
CN(C)C(=O)C[C@@H]1C[C@@H]2c3cc(NC(=O)NC4CCCC4)ccc3O[C@@H]2[C@H](CO)O1	13.9	10.6
COc1ccc(CNC(=O)C[C@@H]2C=C[C@@H](NC(=O)CN(C)C)[C@H](CO)O2)cc1	8.3	20.0
COCC(=O)N1CC2(C1)[C@H](c1ccc(-c3ccc(C)cc3)cc1)[C@@H](CO)N2C(C)=O	-11.3	-4.5
CCCNC(=O)[C@@H]1[C@@H](CO)[C@@H]2Cn3c(ccc(-c4cccc(OC)c4)c3=O)[C@H]1N2C(=O)NCCC	6.6	2.3
C[C@H](CO)N1C[C@H](C)[C@H](CN(C)C(=O)Nc2ccccc2)Oc2ccc(NC(=O)NC3CCCCC3)cc2CC1=O	6.2	3.0
Cc1ccc(S(=O)(=O)Nc2ccc3c(c2)C(=O)N([C@@H](C)CO)C[C@H](C)[C@@H](CN(C)C(=O)Nc2ccc4c(c2)OCO4)OCCCC[C@@H](C)O3)cc1	?	/
O=C(C[C@H]1C=C[C@@H](NC(=O)c2ccccn2)[C@@H](CO)O1)NCc1cc(F)cc(F)c1	-7.4	1.0
C[C@@H]1CN([C@@H](C)CO)C(=O)Cc2cc(NC(=O)Cc3ccccc3)ccc2O[C@@H]1CN(C)Cc1ccncc1	4.7	-2.9
COc1cccc(S(=O)(=O)N[C@H]2CC[C@@H](CC(=O)NCc3ccncc3)O[C@@H]2CO)c1	4.4	6.0
Cc1ccc(S(=O)(=O)N(C)C[C@@H]2OCCCC[C@@H](C)Oc3ccc(NC(=O)NC(C)C)cc3C(=O)N([C@@H](C)CO)C[C@@H]2C)cc1	18.6	-0.1

Among those listed so far, three contain a thiophene ring, fused or not.
SMILES	Vaccinia inh	Vaccinia inh Venus
C[C@@H]1CN([C@@H](C)CO)C(=O)Cc2cc(NS(=O)(=O)c3cccs3)ccc2O[C@H]1CN(C)S(=O)(=O)c1ccccc1	4.6	-0.4
C[C@@H]1CN([C@@H](C)CO)C(=O)c2cc(NS(C)(=O)=O)ccc2O[C@H]1CN(C)S(=O)(=O)c1cccs1	3.9	1.4
CCCNC(=O)C[C@@H]1CC[C@@H]2[C@@H](COc3ccc(NC(=O)c4cccs4)cc3C(=O)N2C)O1	22.3	8.4

From PubChem BioAssay

This is a subset (hit frequency here may not be typical).
